Source: PubChem BioAssay
VDR inhibitor – Inhibitors of the vitamin D receptor (VDR): qHTS; Potency, µM, for the others: max response, negative = inhibition, actives largely listed as inhibitors; VDR-SRC2-3 peptide fluorescence polarization, 2 h; AID 504847, 2011; actives 0.93% (n = 400,000); Vitamin D3 receptor (Homo sapiens), P11473; active = well fitted inhibition curve with a large enough effect; inconclusive = small, poorly fitted or top-dose-only effect, or another doubt; inactive = no such curve, though single readings can be large or run the other way; note: series mostly up to about 120 µM
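Fluorescence polarization assay of small-molecule disruption of VDR binding to coregulator peptide SRC2-3. Compounds and controls pin-transferred, then read after 2 h incubation at ambient room temperature.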
Active calls of the source: *; ? = inconclusive. % is set by controls: 0 for no effect and ±100 for the full control effect; potency is the fitted concentration of half-maximal effect. Not all compounds are listed (hit frequency here may not be typical).

| cpd | VDR inhibitor | structure |
| --- | --- | --- |
| 1 | 1% | CC(C)c1ccc(NC2CCCN(C(=O)c3cccs3)C2)cc1 (stereo not drawn) |
| 2 | 13% | OCCCn1c(C2CCCN2c2nc(-c3ccc(Cl)cc3)cs2)nc2cc(Cl)c(Cl)cc21 (stereo not drawn) |
| 3 | -10% | CCCC#CCN1CCN(C23CC4CC(CC(C4)C2)C3)CC1 |
| 4 | 7% | Cc1cc(-c2ccc(C)c(S(=O)(=O)Nc3ccccc3C(F)(F)F)c2)on1 |
| 5 | ? | CCOc1cccc(C(=O)N/N=C/c2coc3ccccc3c2=O)c1 |
| 6 | 15% | COc1ccc(C(CC(=O)c2ccccc2)C2CCCCC2=O)cc1 (stereo not drawn) |
| 7 | 9% | Cc1cc(C)n2nc(C(=O)N3CCCC(Nc4ccc(F)c(F)c4)C3)cc2n1 (stereo not drawn) |
| 8 | 5% | COc1ccc(NC(=O)COC(=O)c2ccc(NS(=O)(=O)/C=C/c3ccccc3)cc2)cc1 |
| 9 | -15% | Cc1cccc(NC(=O)Nc2ccccc2[N+](=O)[O-])n1 |
| 10 | 12% | C/C(N)=C(/C#N)C(=O)COC(=O)c1ccc(C)c(S(=O)(=O)N2CCCCC2)c1 |
| 11 | 10% | COc1ccc(C)cc1NC(=O)c1cc(S(=O)(=O)N2CCC(C)CC2)ccc1F |
| 12 | 10% | CC(C)CC(=O)Nc1nnc(SCC(=O)NC2CCCCC2)s1 |
| 13 | -1% | C=CCSc1nc(C)cc2c1C(=O)OC2 |

5 entries picked at random from the list so far:
| cpd | VDR inhibitor | structure |
| --- | --- | --- |
| 8 | 5% | COc1ccc(NC(=O)COC(=O)c2ccc(NS(=O)(=O)/C=C/c3ccccc3)cc2)cc1 |
| 11 | 10% | COc1ccc(C)cc1NC(=O)c1cc(S(=O)(=O)N2CCC(C)CC2)ccc1F |
| 5 | ? | CCOc1cccc(C(=O)N/N=C/c2coc3ccccc3c2=O)c1 |
| 1 | 1% | CC(C)c1ccc(NC2CCCN(C(=O)c3cccs3)C2)cc1 (stereo not drawn) |
| 6 | 15% | COc1ccc(C(CC(=O)c2ccccc2)C2CCCCC2=O)cc1 (stereo not drawn) |

Down the list, from the results shown:
Entries 3–7 in VDR inhibitor, in turn: -10%, 7%, ?, 15%, 9%

Some of the entries above in another layout:
item	mol	VDR inhibitor
9	Cc1cccc(NC(=O)Nc2ccccc2[N+](=O)[O-])n1	-15%
10	C/C(N)=C(/C#N)C(=O)COC(=O)c1ccc(C)c(S(=O)(=O)N2CCCCC2)c1	12%
